High-throughput results from PubChem.
Mtb hypoxia inh – PubChem AID 1159583; M. tuberculosis hypoxia-regulated fluorescent reporter, fluorescence; fluorescence inhibition, % (no concentration beside the values); 0.1% of 300,000 active;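 active = 35 to 45% if threefold the growth effect, above 45% if 1.5-fold the growth effect; inactive = the rest, general growth blockers included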;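 also: wells of about 50 µL received 100 nL stock; 0% = vehicle wells and 100% = reference inhibitor wells; whole bacteria with a GFP reporter of the hypoxia response; strong numbers were not always called active; many hits fall short of the cut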
Autofluor counter – counter-screen for toxin protease inhibitors: compound fluorescence | compound autofluorescence counterscreen, microsphere flow cytometry; hits give high values | fluorescence intensity (no concentration beside the values) | 3.1% of 360,000 active;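 active = at least 3 SD above the mean of all compounds, about 16000 in these data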;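 also: 100 nL of 1 mM stock went into each well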
Sa ugtP lethal – growth inhibition of ugtP-null S. aureus, primary screen, RN4220 ugtP deletion, OD600; AID 1259309, 2017; 0.54% of 330,000 active; 16 h; some inactives read as strong as hits; growth inhibition, % (no concentration beside the values);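 active = z-score under -3 and OD600 up to 0.15 on both plates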;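 also: plate controls were untreated wells for no effect and antibiotic for full effect; wells of about 80 µL received 100 nL stock; the first replicate is given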
BJeLR lethal – MLPCN primary cell-based screen for lethality selective to Ras in HRASV12 cells; BJeLR (HRASV12) viability, CellTiter-Glo ATP luminescence, 48 h; reference of the scale not given here; inhibition, % (test concentration not listed); AID 1554, 2009; 0.17% of 300,000 active;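 active = replicate mean above 50%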;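 also: 50 nL library stock added to about 25 µL; numbers are from one replicate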
Sa RN4220 lethal – growth inhibition of S. aureus RN4220, primary screen, OD600; 0.33% of 330,000 active; 16 h; inhibition, % (no concentration beside the values);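 active = z-score of -3 or lower and OD600 up to 0.18 on both plates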;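 also: plate controls were untreated cells for no effect and reference antibiotic for full effect; stock transfer was 100 nL into about 80 µL; one replicate is shown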
PrP 5UTR inh – inhibition of PrP 5' UTR reporter expression; cell-based PrP 5' UTR mRNA reporter, plate reader; inhibition, % (no concentration beside the values); 0.35% of 340,000 active;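 active = every replicate at 50% or more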;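 also: 0 = median of the neutral control wells; tested in H4 reporter cells; numbers are from one replicate; inactives centre near -14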
Mtb hypoxia inh growth – second read-out of Mtb hypoxia inh, no call of its own (marks repeat the call); growth inhibition, %; measured here: M. tuberculosis growth (absorbance);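 0% = vehicle and 100% = reference antibiotic; read after six days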
* marks the source's active call; other numbers are inactive results.

For CC(=O)NC12CC3CC(C1)CC(C(=O)N1CCN(S(=O)(=O)c4cccc(C(F)(F)F)c4)CC1)(C3)C2 the results were Mtb hypoxia inh -2, Autofluor counter 7012, Sa ugtP lethal 3, BJeLR lethal 7, Sa RN4220 lethal 2.2, PrP 5UTR inh 7 and Mtb hypoxia inh growth 0.
OCC1(Cc2cccc(Cl)c2)CCCN(Cc2cn[nH]c2C2CCCCC2)C1 (configuration not stated) was read as Mtb hypoxia inh 13, Autofluor counter 3762, Sa ugtP lethal 3, BJeLR lethal 1, Sa RN4220 lethal 5.5, PrP 5UTR inh -34 and Mtb hypoxia inh growth 10.
N/C(=N/S(=O)(=O)c1ccccc1)c1cccc([N+](=O)[O-])c1 was read as Autofluor counter 4440, BJeLR lethal 2 and PrP 5UTR inh -16.
For CSc1nnc(Cn2c(=O)sc3ccccc32)n1C the results were Autofluor counter 4350, Sa ugtP lethal -6, BJeLR lethal -8, Sa RN4220 lethal 0.1 and PrP 5UTR inh -19.
`O=C(CN1C(=O)c2ccccc2C1=O)NCC1COc2ccccc2O1` (configuration not stated) gave Mtb hypoxia inh -4, Autofluor counter 4846, Sa ugtP lethal 2, BJeLR lethal 5, Sa RN4220 lethal -5.8, PrP 5UTR inh 3 and Mtb hypoxia inh growth -9.
Screening CCOC(=O)Cc1csc(NS(=O)(=O)c2ccc3ccccc3c2)n1 returned Mtb hypoxia inh 7, Autofluor counter 8867, Sa ugtP lethal 3, BJeLR lethal -8, Sa RN4220 lethal 11, PrP 5UTR inh -31 and Mtb hypoxia inh growth 0.
Cc1ccc(S(=O)(=O)N2CCC(C(=O)N[C@H](C(=O)NCc3ccco3)C(C)C)CC2)cc1 was read as Mtb hypoxia inh 3, Autofluor counter 10340, Sa ugtP lethal 7, BJeLR lethal -3, Sa RN4220 lethal 2.2, PrP 5UTR inh -30 and Mtb hypoxia inh growth 5.
Screening CC(C)Cn1nnc2c(=O)oc3ccccc3c21 returned Mtb hypoxia inh 7, Autofluor counter 24285*, Sa ugtP lethal 3, BJeLR lethal -6, Sa RN4220 lethal 4.2, PrP 5UTR inh -2 and Mtb hypoxia inh growth 7.
CCNc1nc(N)c(C(=O)C23CC4CC(CC(C4)C2)C3)s1 was read as Mtb hypoxia inh -2, Sa ugtP lethal 2, BJeLR lethal -6, Sa RN4220 lethal 2.2, PrP 5UTR inh -19 and Mtb hypoxia inh growth 1.
For CCn1nnnc1SCC(=O)c1cc(Cl)ccc1OC the results were Autofluor counter 4689, BJeLR lethal -7 and PrP 5UTR inh -14.
CCc1cc(=O)oc2cc(OCC(=O)NCCCN3CCCC3=O)c(Cl)cc12 was read as Mtb hypoxia inh 7, Autofluor counter 5229, Sa ugtP lethal 9, BJeLR lethal 5, Sa RN4220 lethal 0.4, PrP 5UTR inh 3 and Mtb hypoxia inh growth 1.
`Cc1cc(C)cc(N(CCC#N)C(=O)COC(=O)c2ccc(OCc3c(C)noc3C)cc2)c1` gave Mtb hypoxia inh -7, Autofluor counter 5298, Sa ugtP lethal 14, BJeLR lethal -5, Sa RN4220 lethal 1.0, PrP 5UTR inh -27 and Mtb hypoxia inh growth 2.
For O=P(NC(c1ccccc1)c1ccccc1)(Oc1ccccc1)Oc1ccccc1 the results were Mtb hypoxia inh 5, Autofluor counter 2039, Sa ugtP lethal -9, BJeLR lethal 0, Sa RN4220 lethal 4.8, PrP 5UTR inh -8 and Mtb hypoxia inh growth -1.
For COC(=O)c1ccc(NC(=O)CCN2C(=O)CSC2=O)cc1 the results were Mtb hypoxia inh 8, Autofluor counter 4257, Sa ugtP lethal -1, BJeLR lethal 0, Sa RN4220 lethal 0.5, PrP 5UTR inh -21 and Mtb hypoxia inh growth 9.
NC(=O)CCN1CCN(S(=O)(=O)/C=C/c2ccccc2)CC1 was read as Mtb hypoxia inh 7, Autofluor counter 6393, Sa ugtP lethal -2, BJeLR lethal -11, Sa RN4220 lethal 0.5, PrP 5UTR inh 9 and Mtb hypoxia inh growth 1.
`COCCNC(=S)N/N=C(\C)CCc1ccc2c(c1)OCO2` gave Autofluor counter 4692, BJeLR lethal 4 and PrP 5UTR inh -13.
For COCCNC(=O)C(c1ccc(C)o1)N(Cc1ccco1)C(=O)c1snc(C(N)=O)c1N (configuration not stated) the results were Sa ugtP lethal 5, BJeLR lethal 1, Sa RN4220 lethal 2.1 and PrP 5UTR inh -15.
CC[C@@]1(C(=O)OC)N[C@H](CN(C)C(C)=O)[C@@H]2C(=O)N(C)C(=O)[C@@H]21 was read as Mtb hypoxia inh 3, Autofluor counter 3560, Sa ugtP lethal 1, Sa RN4220 lethal 0.4, PrP 5UTR inh -12 and Mtb hypoxia inh growth 9.
For CCCNS(=O)(=O)c1ccc(OCC(=O)NCC2CCCO2)cc1 (configuration not stated) the results were Mtb hypoxia inh 1, Autofluor counter 5750, Sa ugtP lethal 7, BJeLR lethal -14, Sa RN4220 lethal 4.2, PrP 5UTR inh -13 and Mtb hypoxia inh growth -3.
Screening Cc1noc(C)c1COC(=O)COc1ccc(-c2ccccc2)cc1 returned Mtb hypoxia inh -3, Autofluor counter 6701, Sa ugtP lethal 1, BJeLR lethal 5, Sa RN4220 lethal 5.7, PrP 5UTR inh -24 and Mtb hypoxia inh growth 1.

Sorted by heavy-atom count (falling): some entries from above
`Cc1cc(C)cc(N(CCC#N)C(=O)COC(=O)c2ccc(OCc3c(C)noc3C)cc2)c1` gave Mtb hypoxia inh -7, Autofluor counter 5298, Sa ugtP lethal 14, BJeLR lethal -5, Sa RN4220 lethal 1.0, PrP 5UTR inh -27 and Mtb hypoxia inh growth 2.
Cc1ccc(S(=O)(=O)N2CCC(C(=O)N[C@H](C(=O)NCc3ccco3)C(C)C)CC2)cc1 was read as Mtb hypoxia inh 3, Autofluor counter 10340, Sa ugtP lethal 7, BJeLR lethal -3, Sa RN4220 lethal 2.2, PrP 5UTR inh -30 and Mtb hypoxia inh growth 5.
Screening CC(C)Cn1nnc2c(=O)oc3ccccc3c21 returned Mtb hypoxia inh 7, Autofluor counter 24285*, Sa ugtP lethal 3, BJeLR lethal -6, Sa RN4220 lethal 4.2, PrP 5UTR inh -2 and Mtb hypoxia inh growth 7.

Next part:
CCOC(=O)C1CCN(C(=O)C2CCN(c3ncnc4c3nc3n4CCCCC3)CC2)CC1 was read as Mtb hypoxia inh -10, Autofluor counter 5109, Sa ugtP lethal -9, BJeLR lethal -3, Sa RN4220 lethal -0.5, PrP 5UTR inh -12 and Mtb hypoxia inh growth 8.
CC(c1ccccc1F)n1cc(C(=O)NCCCn2ccnc2)nn1 (configuration not stated) was read as Autofluor counter 3488, Sa ugtP lethal 12, BJeLR lethal 0, Sa RN4220 lethal -3.0 and PrP 5UTR inh -10.
Screening CCc1nnc(NC(=O)C23CC4CC(CC(C4)C2)C3)s1 returned Mtb hypoxia inh -14, Autofluor counter 3362, Sa ugtP lethal -12, BJeLR lethal -17, Sa RN4220 lethal -1.1, PrP 5UTR inh -45 and Mtb hypoxia inh growth -4.
Screening COc1ccccc1-c1ccc(SCC(=O)NC2CCCC2)nn1 returned Mtb hypoxia inh 4, Sa ugtP lethal 3, BJeLR lethal 2, Sa RN4220 lethal 2.5, PrP 5UTR inh -22 and Mtb hypoxia inh growth 5.
Screening CC(CC(=O)NC1CCCCC1)=NNC(=O)COc1ccc(C)cc1Br returned Mtb hypoxia inh 11, Sa ugtP lethal 6, Sa RN4220 lethal 3.8 and Mtb hypoxia inh growth 9.
For CCCCC(=O)Nc1cccc(-c2cn3ccsc3n2)c1 the results were Mtb hypoxia inh 4, Autofluor counter 2300, Sa ugtP lethal -8, BJeLR lethal -2, Sa RN4220 lethal 8.8, PrP 5UTR inh -27 and Mtb hypoxia inh growth 4.
`Cn1cccc1/C=C1\SC(=O)N(CC(=O)Nc2ccc(Cl)cc2)C1=O` gave Mtb hypoxia inh 8, Autofluor counter 6256, Sa ugtP lethal -4, BJeLR lethal 1, Sa RN4220 lethal -8.2, PrP 5UTR inh -46 and Mtb hypoxia inh growth 5.
For COc1ccc(OC)c(NC(=O)CSc2nc3cccnc3n2C)c1 the results were Autofluor counter 3935, Sa ugtP lethal 7, BJeLR lethal 10, Sa RN4220 lethal -0.8 and PrP 5UTR inh -17.
Screening CCOc1cc(C2Nc3cccc4cccc(c34)N2)ccc1O returned Mtb hypoxia inh 19, Autofluor counter 3590, Sa ugtP lethal 22, BJeLR lethal -18, Sa RN4220 lethal 8.7, PrP 5UTR inh -19 and Mtb hypoxia inh growth 9.
O=C(COc1ccc(Cl)cc1Cl)NN=C1CCCc2ccccc21 was read as Mtb hypoxia inh 6, Sa ugtP lethal -20, Sa RN4220 lethal 4.8 and Mtb hypoxia inh growth 7.
Screening COc1ccccc1C(=O)NC(=S)N1CCc2ccccc21 returned Mtb hypoxia inh 0, Autofluor counter 4307, Sa ugtP lethal 13, BJeLR lethal 3, Sa RN4220 lethal 6.3, PrP 5UTR inh -20 and Mtb hypoxia inh growth 5.
`COc1ccc2c(c1OC)C(=O)N1C2SC[C@H]1C(=O)NC1CCCC1` (some centres not stated) gave Mtb hypoxia inh 7, Autofluor counter 5807, Sa ugtP lethal 9, BJeLR lethal -4, Sa RN4220 lethal 1.9, PrP 5UTR inh -21 and Mtb hypoxia inh growth 0.
`CC(c1ccccc1)C1C(C#N)=C(N)OC2=C1C(=O)CC(C)(C)C2` (configuration not stated) gave Mtb hypoxia inh -6, Autofluor counter 23366*, Sa ugtP lethal -4, BJeLR lethal 24, Sa RN4220 lethal 3.4, PrP 5UTR inh 7 and Mtb hypoxia inh growth 11.
For COc1ccc2c(c1)C(C)CC(C)(C)N2C(=O)CSc1nc2ccccc2s1 (configuration not stated) the results were Autofluor counter 4116, Sa ugtP lethal 2, BJeLR lethal -5, Sa RN4220 lethal 5.5 and PrP 5UTR inh -13.
`Cc1ccc(-n2c(SCC(=O)NCc3ccco3)nnc2-c2cccnc2)c(C)c1` gave Mtb hypoxia inh 6, Autofluor counter 22964*, Sa ugtP lethal 7, BJeLR lethal 3, Sa RN4220 lethal 4.3, PrP 5UTR inh -14 and Mtb hypoxia inh growth 1.
O=C(CSc1ncnc2sc3c(c12)CCCC3)c1ccccc1 was read as Autofluor counter 2916, Sa ugtP lethal 22, BJeLR lethal 4, Sa RN4220 lethal 9.9 and PrP 5UTR inh -29.
`CN(CCC1CCOCC1)C(=O)C1CCC(=O)N(CCc2ccccc2)C1` (configuration not stated) gave Mtb hypoxia inh 10, Autofluor counter 5954, Sa ugtP lethal 7, BJeLR lethal -11, Sa RN4220 lethal 2.4, PrP 5UTR inh 24 and Mtb hypoxia inh growth -20.
Screening COc1cc(C)ccc1OCC(=O)NC1CCCCCC1 returned Mtb hypoxia inh -5, Autofluor counter 3837, Sa ugtP lethal -8, Sa RN4220 lethal -1.3, PrP 5UTR inh -38 and Mtb hypoxia inh growth 9.
`Cn1c(=O)n(C)c2cc(/C=N/n3cnnc3)ccc21` gave Autofluor counter 5370, BJeLR lethal -11 and PrP 5UTR inh -32.
`C/C(C=NNC(=O)CSc1ccccn1)=C\c1ccc(C(C)C)cc1` gave Mtb hypoxia inh 5, Sa ugtP lethal 2, Sa RN4220 lethal -0.4 and Mtb hypoxia inh growth 5.
For Clc1ccc(-n2nnc(-c3nccs3)n2)cc1Cl the results were Mtb hypoxia inh 10, Autofluor counter 3914, Sa ugtP lethal -7, BJeLR lethal -6, Sa RN4220 lethal 6.4, PrP 5UTR inh -29 and Mtb hypoxia inh growth 4.
CCCCn1nc2cc(C(=O)NCc3ccc(C(F)(F)F)cc3C(F)(F)F)ccc2c1OCC was read as Mtb hypoxia inh 20, Autofluor counter 2843, Sa ugtP lethal -1, BJeLR lethal -4, Sa RN4220 lethal 2.6, PrP 5UTR inh -13 and Mtb hypoxia inh growth 8.
`NC(=NOC(=O)Nc1ccccc1)c1ncc([N+](=O)[O-])s1` gave Mtb hypoxia inh 17, Sa ugtP lethal 3, Sa RN4220 lethal 6.9 and Mtb hypoxia inh growth 4.

Quoted at random: two entries already listed
Screening COc1cc(C)ccc1OCC(=O)NC1CCCCCC1 returned Mtb hypoxia inh -5, Autofluor counter 3837, Sa ugtP lethal -8, Sa RN4220 lethal -1.3, PrP 5UTR inh -38 and Mtb hypoxia inh growth 9.
`CC(c1ccccc1)C1C(C#N)=C(N)OC2=C1C(=O)CC(C)(C)C2` (configuration not stated) gave Mtb hypoxia inh -6, Autofluor counter 23366*, Sa ugtP lethal -4, BJeLR lethal 24, Sa RN4220 lethal 3.4, PrP 5UTR inh 7 and Mtb hypoxia inh growth 11.

Random draw from the library (roughly 4% active in at least one column).
